Screening data: PubChem BioAssay, several laboratories
T cruzi repl – inhibitors of intracellular T. cruzi growth, primary screen, luminescence, NIH3T3 host cells | T. cruzi beta-gal in NIH3T3, 90 h | inhibition, % (no concentration beside the values) | actives 1.4% (n = 300,000) | AID 1885, 2009;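 active = mean inhibition across valid replicates above about 55%, limit read from the data; inconclusive = mean below that limit but half or more replicates reach it; inactive = mean below it, under half of replicates reach it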;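 note: signal also drops with host cell toxicity which is not excluded here; 0% = plate median of DMSO wells and 100% = zero luminescence signal; higher percent means less beta-gal luminescence so fewer parasites; stock transfer was 50 nL into about 50 µL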
A1 inh – caspase 3/7 activation in MEF A1-2A-BIM cells, primary screen, A1 inhibitor project, cell-based, luminescence, HTS; AID 2462, 2010; caspase activation, % (no concentration beside the values); actives 0.066% (n = 330,000); Caspase-Glo 3/7 luminescence, 3 h; percent of clofoctol response, vehicle zero;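 active = over half of replicate activation scores above 10%, or exactly half above 10 with the replicate mean above 10; inconclusive = replicate mean below 10 yet half the replicates above 10; inactive = over half of replicates below 10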;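 note: wells of about 30 µL received 50 nL stock; many hits fall short of the cut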
ALR H2O2 inh – inhibitors of human ALR sulfhydryl oxidase, primary screen, biochemical, H2O2 detection, HRP-luminol luminescence, single point. purified ALR, DTT oxidation. inhibition, % (concentration not given with the values). actives 3.8% (n = 290,000);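 active = mean and each replicate at 75% or more; inconclusive = only one of the two met; inactive = neither met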;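 note: stock transfer was 7.5 nL into about 7.5 µL; 0% = neutral wells and 100% = wells with inactivated enzyme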
B2AR ag – beta2AR agonists driving receptor internalization, primary screen, cell-based, FAP fluorogen, flow cytometry; Beta-2 adrenergic receptor (Homo sapiens), P07550; response, % (no concentration beside the values); AID 504454, 2011; Am2.2-beta2AR cells; reference of the scale not given here; actives 0.43% (n = 340,000);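 active = response above a set limit, near 3 SD of response in nonfluorescent compounds, cut at about 42% in these data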;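 note: stock transfer was 100 nL into about 11 µL; a reference agonist was the positive control; negative values mostly stem from fluorescent compounds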
Beta cell apopt – inhibitors of cytokine-induced beta cell apoptosis, primary screen, luminescence | INS-1E cytokine-induced death, ATP luminescence, 48 h; percent of positive-control rescue, neutral wells zero | protection from apoptosis, % (test concentration not listed) | actives 0.8% (n = 300,000) | AID 435005, 2010;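 active = all replicates at 75% or more, or half of them and the mean; inconclusive = half reach 75% but not the mean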;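 note: 0% = cytokine-treated negative control wells and 100% = positive control rescue; higher means more ATP so stronger rescue from cytokine killing; wells of about 40 µL received 100 nL stock; the first replicate is given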
LANA-H2B inh – blockers of LANA interaction with H2A/H2B – biochemical, FP readout, HTS, primary screen. actives 0.6% (n = 320,000). Protein LANA1 (Human herpesvirus 8 type P (isolate GK18)), Q9QR71. AID 2629, 2010. inhibition, % (test concentration not listed). cell-free LANA-H2A/H2B peptide, fluorescence polarization; in the data active = inhibition mostly above about 10%, no sharp cut-off; inactive = mostly below about 6.7%;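 note: stock transfer was 7.5 nL into about 10 µL; 0% = median of vehicle wells and 100% = median of positive control wells; one replicate is shown; the record names a cut of 25% in any replicate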
Target sequence (Q9QR71 whole entry, looked up): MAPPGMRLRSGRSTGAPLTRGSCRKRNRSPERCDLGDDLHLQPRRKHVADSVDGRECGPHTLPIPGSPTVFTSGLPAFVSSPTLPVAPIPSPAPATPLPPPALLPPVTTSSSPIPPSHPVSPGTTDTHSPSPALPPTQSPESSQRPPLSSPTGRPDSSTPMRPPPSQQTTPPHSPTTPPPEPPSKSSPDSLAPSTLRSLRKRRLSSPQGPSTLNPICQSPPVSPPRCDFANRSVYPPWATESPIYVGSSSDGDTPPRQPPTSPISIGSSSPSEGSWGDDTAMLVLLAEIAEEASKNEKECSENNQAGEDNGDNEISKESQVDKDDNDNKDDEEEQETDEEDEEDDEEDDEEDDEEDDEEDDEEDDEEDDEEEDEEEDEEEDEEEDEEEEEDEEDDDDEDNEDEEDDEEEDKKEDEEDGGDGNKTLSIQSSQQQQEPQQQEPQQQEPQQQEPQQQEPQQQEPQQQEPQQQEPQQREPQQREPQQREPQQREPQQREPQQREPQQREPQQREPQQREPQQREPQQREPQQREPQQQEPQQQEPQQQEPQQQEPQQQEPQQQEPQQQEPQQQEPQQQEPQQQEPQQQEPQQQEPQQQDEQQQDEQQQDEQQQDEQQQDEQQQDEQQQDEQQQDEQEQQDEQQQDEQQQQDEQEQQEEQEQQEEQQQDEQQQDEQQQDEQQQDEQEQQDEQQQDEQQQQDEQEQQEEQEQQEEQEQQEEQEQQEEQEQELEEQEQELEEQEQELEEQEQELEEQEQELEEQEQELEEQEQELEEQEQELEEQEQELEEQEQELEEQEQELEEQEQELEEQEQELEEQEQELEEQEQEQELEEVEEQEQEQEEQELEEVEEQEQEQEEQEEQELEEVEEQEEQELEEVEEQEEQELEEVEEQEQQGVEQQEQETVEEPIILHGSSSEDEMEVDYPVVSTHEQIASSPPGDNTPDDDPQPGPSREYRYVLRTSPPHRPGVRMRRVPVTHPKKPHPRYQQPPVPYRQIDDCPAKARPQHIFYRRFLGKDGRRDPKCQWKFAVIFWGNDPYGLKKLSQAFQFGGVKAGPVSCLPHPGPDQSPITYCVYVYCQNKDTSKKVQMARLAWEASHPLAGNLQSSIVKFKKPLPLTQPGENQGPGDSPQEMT
Ecoli rRNA inh – reduced GFP signal of wild-type E. coli, primary screen, bacterial rRNA inhibitor project, GFP/RFP fluorescence, OD600, single point; actives 1.6% (n = 350,000); E. coli WT GFP vs humanized-ribosome RFP mutants, 24 h; active compounds read low; DMSO median 0, no signal -100; GFP signal change (wild-type ribosome), % (concentration not given with the values);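 active = significant combined selectivity score with lowered wild-type GFP, culture density cut under 30%, mutant RFP and density less affected; inactive = any of these conditions unmet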; note: one replicate is shown; some compounds called inactive have numbers as strong as hits
Calb FLC – C. albicans growth inhibition with fluconazole, primary screen, CaCi-2 strain, Alamar Blue fluorescence; C. albicans CaCi-2 (fluconazole-resistant clinical isolate) + fluconazole, 48 h; growth inhibition, % (concentration not given with the values); actives 0.57% (n = 300,000); AID 1979, 2009;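 active = most replicates above 75%; inconclusive = exactly half above 75%; inactive = most below 75%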;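 note: all wells also contain fluconazole at 8 µg/ml as a sub-toxic cotreatment; 0% = median of DMSO wells and 100% = median of geldanamycin control wells; wells of about 8 µL received 7.5 nL stock; the first replicate is given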
Ecoli rRNA inh OD600 – further read-out of Ecoli rRNA inh, marked with its call; OD600 change, %; measured here: OD600 growth;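 optical density of the mix in the first replicate; 0 = DMSO median and -100 = no signal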
Ecoli rRNA inh RFP – also measured in Ecoli rRNA inh; calls as there; RFP signal change, %; measured here: RFP humanized mutant strains;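 first replicate; 0 = DMSO median and -100 = no signal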
* hit, by the source's call; ? = inconclusive; . = not tested or not shown. Only part of the results is shown, so the mix of outcomes need not match the whole.

SMILES	T cruzi repl	A1 inh	ALR H2O2 inh	B2AR ag	Beta cell apopt	LANA-H2B inh	Ecoli rRNA inh	Ecoli rRNA inh OD600	Ecoli rRNA inh RFP	Calb FLC
CCC(C)(C#CCN1CCCCC1)OC(C)=O (stereo unspecified)	2	1.2	-22	1	-8	5.0	12	7	-3.9	-6
CNc1ccccc1NC(=O)C1CCCN1C(=O)OCc1ccccc1 (stereo unspecified)	-9	0.4	16	-8	-1	3.2	2	6	4.7	0
CCCC12CN3CC(C)(CN(C1)C3c1ccc(OC)cc1)C2=O (stereo unspecified)	-15	0.8	-3	4	3	2.8	.	.	.	-1
CSCCC(NC(=O)OC(C)(C)C)C(=O)NC(CC(C)C)C(N)=O (stereo unspecified)	14	0.2	2	-5	0	-4.5	.	.	.	-5
CCN(CC)c1ccc(N=Cc2ccccc2[N+](=O)[O-])cc1	74*	0.1	87*	4	100*	5.3	-32*	11*	3.4*	12
COc1cccc(NC(=O)NNC(=O)COc2ccc3ccccc3c2)c1	-1	0.4	-13	1	-5	1.9	0	0	2.1	-1
COCc1ccc(C(=O)N2CCc3c([nH]c4ccccc34)C2c2ccccn2)s1 (stereo unspecified)	-1	0.0	-3	0	-6	183*	-26	39	6.3	-13
Cc1cccc(C)c1N1CCN(C(=O)Nc2ccc3c(c2)OCCO3)CC1	10	-0.5	-20	-2	10	3.0	.	.	.	-1
COc1ccc(-c2nn(CCC#N)cc2C(=O)Nc2cccc(C(=O)O)c2)cc1OC	-13	1.0	-4	-7	-13	-0.9	4	5	1.4	-1
Cc1ccc(/C=N/N2CCN(c3ccc(Cl)cc3)CC2)o1	.	-0.5	3	1	5	-6.4	.	.	.	.
CCOC(=O)c1sc(NC(=O)CSc2nnc(C(C)C)n2C)nc1C	-4	-1.3	-16	-3	1	0.9	.	.	.	-5
O=C(c1ccc(Cl)cc1)C1CCN(C(=O)C2CC2)CC1	-10	-0.5	2	-2	2	-0.1	.	.	.	19

Two records picked at random from the list so far:
SMILES	T cruzi repl	A1 inh	ALR H2O2 inh	B2AR ag	Beta cell apopt	LANA-H2B inh	Ecoli rRNA inh	Ecoli rRNA inh OD600	Ecoli rRNA inh RFP	Calb FLC
Cc1cccc(C)c1N1CCN(C(=O)Nc2ccc3c(c2)OCCO3)CC1	10	-0.5	-20	-2	10	3.0	.	.	.	-1
Cc1ccc(/C=N/N2CCN(c3ccc(Cl)cc3)CC2)o1	.	-0.5	3	1	5	-6.4	.	.	.	.

Next section
SMILES	T cruzi repl	A1 inh	ALR H2O2 inh	B2AR ag	Beta cell apopt	LANA-H2B inh	Ecoli rRNA inh	Ecoli rRNA inh OD600	Ecoli rRNA inh RFP	Calb FLC
COC1=C(Nc2ccccc2OC)C(=O)c2ccccc2C1=O	-7	1.2	4	-33	83*	2.3	-14	-1	2.4	30
Cc1ccccc1-n1c(SCc2c(C)noc2C)nnc1-c1c[nH]c2ccccc12	41	-0.3	-2	-2	0	-1.4	.	.	.	4
CC(C)C(OC(=O)CN1C(=O)c2ccccc2C1=O)C(=O)NC1CCCC1 (stereo unspecified)	-8	0.8	2	8	-1	3.4	11	10	2.7	-2
COc1cccc(C(=O)Nc2ccc(S(=O)(=O)Nc3onc(C)c3C)cc2)c1	-1	-1.9	46	-8	1	3.8	.	.	.	-3
O=C1NC(=O)c2cc([N+](=O)[O-])cc3cccc1c23	45	0.2	44	1	.	-5.4	16	5	1.3	-4
O=C(Nc1ccccc1N1CCCCC1)c1ncoc1-c1ccc(F)cc1	20	1.4	-2	-5	2	-7.2	.	.	.	2
Cc1cccc(N(CC(=O)NCC2CCCO2)C(=O)CCC(=O)Nc2nccs2)c1 (stereo unspecified)	0	-0.1	-8	-1	0	3.2	7	9	0.9	-4
COc1cccc(CC(=O)Nc2ccc3nc(C)sc3c2)c1	-11	-1.9	1	-7	0	6.9	-3	-13	-2.1	-50
COc1cccc(N/C=C/C(=O)c2ccc(Br)cc2)c1	13	0.0	-3	0	4	4.7	.	.	.	-37
C[C@H]1CC[C@]2(O[C@@H](CCO)C[C@H](O)[C@H]2O)O1	-19	1.4	-9	-7	-5	-1.4	13	15	2.0	-3
COc1ccc(-c2cc(C(=O)N3CCOCC3)c3cc(C)ccc3n2)cc1	-7	1.2	28	-2	-2	18*	.	.	.	-17
CN1/C(=C/C2CC(=O)N(c3cccc4ccccc34)C2=O)C(C)(C)c2ccccc21 (stereo unspecified)	-14	-0.4	-5	14	-2	1.4	.	.	.	12
CC(C)(C)NC(=O)CN(C(=O)CNS(=O)(=O)c1ccccc1)c1ccc2c(c1)OCCO2	-3	0.3	-15	-3	-11	-6.2	.	.	.	-15
CCOC(=O)C1CCN(c2ncnc3c2c(-c2ccccc2)cn3-c2ccc(C)cc2)CC1	42	-0.7	-2	-2	18	-1.1	3	6	-2.4	-1
CC1CCN(S(=O)(=O)CCNC(=O)c2ccc(F)cc2)CC1	-3	0.4	-5	-3	-1	-1.1	7	5	0.4	-2
CN(C)C(=O)CCC(=O)N1CCCC(C(=O)c2ccc(C(F)(F)F)cc2)C1 (stereo unspecified)	-2	0.7	.	-5	1	-2.2	10	12	1.3	1
COC(=O)c1cc2sc(Cl)cc2n1Cc1nc(-c2ccccc2)oc1C	-6	1.2	-10	3	.	-2.8	4	6	0.0	0
Cc1cc[n+](-c2[nH]c(=O)sc2/C=N/NC([S-])=Nc2ccccc2)cc1	-3	-0.4	63	31	3	3.0	28	4	-2.5	-1
Cc1cccc2c1ncc1c(=O)n(-c3ccccc3)[nH]c12	12	-0.8	-6	-1	3	2.9	-13	-5	-3.6	-3
C/C(=N/NC(=O)c1ccco1)c1cccc(NC(=O)c2ccc(C)s2)c1	11	-0.7	4	-3	2	-0.4	-12	1	-1.3	16
O=C(NCc1cccnc1)C1CCN(S(=O)(=O)c2cccs2)CC1	-8	0.2	-11	5	-7	-1.3	.	.	.	-10
CC(=O)Nc1ccc(S(=O)(=O)N2CCC(C(=O)N[C@@H](C)C(=O)NC3CCCC3)CC2)cc1	-7	-0.3	8	-113	-6	-2.7	22	8	0.1	-4
Fc1ccc(CSc2nnc(Cc3sc(-c4ccccc4)nc3-c3ccccc3)o2)cc1	25	0.6	32	-10	.	6.7	.	.	.	-9
COc1ccc(/C=C/c2ccncc2)cc1OC	40	-5.5	-10	-16	-8	-3.5	.	.	.	-3
CC(=O)N(Cc1cccc(Br)c1)c1ccc(N2CCOCC2)c(Cl)c1	-9	0.1	2	-8	1	-1.1	-17	-29	-1.1	10
CC1(C)Cc2cccc(OCC(=O)Nc3cccnc3)c2O1	-7	-1.0	3	-7	1	0.6	.	.	.	30
COc1ccc(CN(C)C(=O)Cc2c[nH]c3ccccc23)c(OC)c1OC	-2	0.9	-6	1	1	-0.1	5	-13	2.1	5
CN1C(=O)CC(N2CCC(c3nc4ccccc4[nH]3)CC2)C1=O (stereo unspecified)	-4	0.2	-13	8	-2	1.9	-2	-5	-1.5	-2
COc1ccc(/C=C/C(=O)OCC(=O)N(C)CC(=O)Nc2ccc(C)cc2)c(OC)c1	.	-0.2	-4	5	-6	-0.6	0	8	-4.1	.
C=CCn1c(COc2cccc(C)c2)nnc1SCC(=O)NC(=O)NCc1ccco1	-23	0.4	9	2	-10	0.6	0	-1	2.7	5
CNc1cc(CSc2ccc(Cl)cc2)nc(C)n1	5	-0.2	.	-4	-1	-4.6	7	-11	3.3	-36
Cc1cccc(C)c1NC(=O)c1c(C)nn(-c2ccccc2)c1Cl	-8	1.1	.	-4	-4	3.0	.	.	.	6
CC(C)c1ccccc1NC(=O)COC(=O)Cc1c[nH]c2ccccc12	-30	0.6	0	-7	.	-4.2	.	.	.	8
COc1cc(C(=O)Nc2cc(C(F)(F)F)ccc2N2CCOCC2)ccc1OCC(=O)N1CCOCC1	4	0.9	-15	13	3	2.0	0	8	-4.6	20
COc1ccc(NS(=O)(=O)c2cccc(C(=O)N(C)Cc3ccc(SC)cc3)c2)cc1	14	0.0	1	3	-1	-4.8	-31	-43	-1.3	-2
CC1CCCCN1c1nnc(N)s1 (stereo unspecified)	3	0.2	53	-7	-9	-1.3	.	.	.	18
COc1ccc(CNC(=O)C(=O)N2CCC3(CC2)OCCN3S(=O)(=O)c2ccc(C)cc2)cc1	-4	0.6	-1	-5	-2	-1.5	-5	-8	-1.6	-1
CCOC(=O)c1[nH]c(C)c(CN(CCc2ccc(OC)c(OC)c2)C(=O)CCCC(=O)O)c1C	5	0.1	1	4	3	-4.9	.	.	.	14
O=C(NNc1cc(C(F)(F)F)nc2ccccc12)Nc1cccc(Cl)c1	11	1.0	-3	4	9	-1.4	-27	-26	0.9	-1
O=C(/C=C/c1cccs1)N1CCN(c2ccc(O)cc2)CC1	24	-0.3	99*	-11	7	1.7	7	4	1.4	-3
O=C(NCCc1ccccc1)C(=O)NCC1OCCN1S(=O)(=O)c1ccc(Br)cc1 (stereo unspecified)	-3	0.0	-4	-11	-2	-1.0	-1	-2	-0.3	5
CC(N=C1NS(=O)(=O)c2ccccc21)C(=O)NCc1ccc(F)cc1 (stereo unspecified)	.	0.9	-8	-5	2	-2.6	0	-1	-1.3	.
O=C(COc1ccc(Cl)cc1Br)NNC(=O)C(=O)N1CCCCC1	-2	0.3	15	-7	-1	1.3	.	.	.	4
Cc1ccnc(NC(c2ccccc2O)c2oc(CO)cc(=O)c2O)c1 (stereo unspecified)	-7	1.4	98*	2	-27	1.4	-1	-3	4.2	?
CC1CCOC2(O1)C(=O)N(CN1CCN(c3ccccc3F)CC1)c1ccccc12 (stereo unspecified)	-9	0.0	1	8	-3	-7.0	.	.	.	-14
O=C1C(Cl)=C(Nc2ccc3cn[nH]c3c2)C(=O)c2ccccc21	59*	2.7	-106	104*	110*	-2.7	-12	1	-0.2	4
CCCCC1=CC2=CC(=O)C(C)(OC(=O)CC)C(=O)C2=CN1c1cccc(C#N)c1 (stereo unspecified)	10	0.5	-61	-1	4	-3.2	-16	-26	5.1	5
CCOCC(=O)Nc1cc([N+](=O)[O-])ccc1C	6	1.7	-4	6	-1	-5.7	.	.	.	14
Nc1ccc(S(=O)(=O)c2ccc(N)c(N)c2)cc1	-9	1.0	88*	3	.	-8.6	-5	-9	1.2	37
O=C1c2ccccc2C(=O)N1CCOCCN1C(=O)c2ccccc2C1=O	-3	-0.4	1	-1	-1	3.8	.	.	.	0
O=C(NCc1cccs1)c1nc2ncccn2n1	-5	0.1	-13	-2	0	-2.7	.	.	.	-6
O=C(CCCn1c(=O)[nH]c2ccccc2c1=O)NCCSCc1ccccc1	11	0.1	-3	0	-2	-3.8	5	5	-0.5	-8
